TRPV1 potentiator – human TRPV1 potentiation | TRPV1-expressing cells, Fluo-8 calcium influx, capsaicin EC20 potentiation; host cell line not named in the record; control for the full effect not named in the record | potentiation, % at 8.33 µM | 320,000 tested, 0.02% active; active means potentiation above 80%; inconclusive means 30% to 80%; inactive means below 30%; also: 0% is about no effect
Target sequence (Q8NER1 whole entry, looked up): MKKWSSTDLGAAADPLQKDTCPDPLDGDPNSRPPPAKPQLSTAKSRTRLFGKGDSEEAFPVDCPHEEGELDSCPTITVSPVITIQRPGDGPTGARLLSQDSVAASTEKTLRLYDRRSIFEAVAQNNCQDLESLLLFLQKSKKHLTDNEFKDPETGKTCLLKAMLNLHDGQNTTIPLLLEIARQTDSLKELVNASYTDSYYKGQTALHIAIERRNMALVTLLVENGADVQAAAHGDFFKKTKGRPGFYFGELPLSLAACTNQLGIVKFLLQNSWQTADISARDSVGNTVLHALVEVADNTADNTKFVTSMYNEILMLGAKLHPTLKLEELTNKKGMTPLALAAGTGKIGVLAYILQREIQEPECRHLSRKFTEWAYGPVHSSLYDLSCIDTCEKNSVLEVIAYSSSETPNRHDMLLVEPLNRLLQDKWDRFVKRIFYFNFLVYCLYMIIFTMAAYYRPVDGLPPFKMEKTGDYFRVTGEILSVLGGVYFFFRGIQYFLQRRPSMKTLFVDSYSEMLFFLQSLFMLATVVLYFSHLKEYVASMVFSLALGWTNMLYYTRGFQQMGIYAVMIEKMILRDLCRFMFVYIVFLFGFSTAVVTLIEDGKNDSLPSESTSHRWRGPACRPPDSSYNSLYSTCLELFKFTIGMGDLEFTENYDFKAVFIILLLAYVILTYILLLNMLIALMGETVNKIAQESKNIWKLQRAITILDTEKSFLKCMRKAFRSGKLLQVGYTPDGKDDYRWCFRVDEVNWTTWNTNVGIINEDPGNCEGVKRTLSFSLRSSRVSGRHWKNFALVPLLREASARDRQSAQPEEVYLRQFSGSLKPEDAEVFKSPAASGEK
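Fluo-8 calcium influx in TRPV1-expressing cells, kinetic read (ex 480/em 520 nm). Compound added and read 3 min for agonist activity, followed by capsaicin at EC20 final and 2 min further read for enhancement.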
CtBP-E1A inh – CtBP/E1A binding inhibition. AlphaScreen GST-E1A/His-CtBP binding, 1536-well; active compounds read low; control for the full effect not named in the record. activity change, % (no concentration beside the values). 340,000 tested, 0.49% active. AID 651724; in the data active means activity change below about -65%; inconclusive means about -30% to -65%; inactive means above about -30%; also: % is scaled to controls: 0 for no effect and ±100 for the full control effect
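GST-E1A and His-tagged CtBP (125 nM each as 5X stock) were preincubated with pin-transferred compound for 2 h at 37 °C in the dark, then glutathione donor and nickel acceptor beads were added for 1 h before AlphaScreen reading.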
Sfp PPTase inh – Sfp phosphopantetheinyl transferase inhibition; Potency, µM, inactives show max response, negative = inhibition, most hits filed as inhibitors; Q9F4F7; 310,000 tested, 3.5% active; Biochemical Sfp PPTase activity, qHTS; active = well fitted inhibition curve with a large enough effect; inconclusive = small, poorly fitted or top-dose-only effect, or another doubt; inactive = no such curve, though single readings can be large or run the other way;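 also: the enzyme is Sfp with the accession as filed and its product quenches rhodamine fluorescence; potency is read from the fitted curve at half-maximal effect; 0% = enzyme reaction without inhibitor and -100% = no enzyme wells; top concentration of the series not given in the record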
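After 15 min at room temperature with compound, 15 nM Sfp received 5 uM rhodamine-CoA plus 12.5 uM BHQ-2-ybbR (50 mM Hepes pH 7.6, 10 mM MgCl2). Rate came from the fluorescence difference over 30 min, ex 525/em 598 nm.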
D2 agonist – agonists of human D2 dopamine receptor (beta-arrestin); P14416; DiscoveRx PathHunter D2 beta-arrestin, luminescence, 90 min; 100% = 57 uM dopamine signal; activation, % (test concentration not listed); 360,000 tested, 0.084% active; AID 624465; in the data active = activation above about 40%; inconclusive = about 15% to 40%; inactive = below about 15%; also: compound concentration not given in the record; the text of the record calls up to 30% inactive
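Agonist mode: compounds alone added to overnight-plated D2 PathHunter cells for 90 min at 37 C, with 57 uM final dopamine (EC100) defining full response. Beta-arrestin recruitment detected by chemiluminescent reagent, read after 1 h at ambient temperature.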
D2 PAM – human D2 receptor positive allosteric modulation. P14416. potentiation, % (test concentration not listed). 360,000 tested, 0.23% active. AID 624464. DiscoveRx D2 beta-arrestin cells, luminescence, 90 min; 100% = 57 uM dopamine signal; active = potentiation of 50% or more; inconclusive = 30% to 50%; inactive = 30% or less;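 also: compound concentration not given in the record; tested on top of an EC20 dose of dopamine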
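D2 cells co-treated with compound plus 50 nM dopamine (EC20) for 90 min at 37 deg C to detect potentiation. Beta-arrestin recruitment was read as enzyme-fragment luminescence after 1 h at ambient temperature. Full response was set by 57 uM dopamine.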
PINK1 modulator – modulators of PINK1 expression | PINK1 immunofluorescence, high-content cytometry, 24 h | Potency, µM (doses to about 76.6 µM), inactives show at the highest dose activation (PINK1 increase), actives largely listed as activators | 410,000 tested, 0.2% active; active = well fitted activation curve with a large enough effect; inconclusive = small, poorly fitted or top-dose-only effect; inactive = flat fitted curve, though single readings scatter; cell line not stated here;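 also: potency is read from the fitted curve at half-maximal effect; % of control where 0% means no effect; nearly all actives have a fitted effect of over 65% in size; a mitochondrial uncoupler was the plate control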
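Decision-based qHTS: stable cells, 24 h exposure to five compound concentrations, CCCP as control. Fixed cells stained for PINK1 plus nuclear, mitochondrial and cell markers, cytometer read.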
Six1-Eya2 inh – blocks human Six1 binding to Eya2; Q15475+O00167; AlphaScreen GST-Six1/His-Eya2 binding, biochemical; active compounds read low; control for the full effect not named in the record; activity change, % (test concentration not listed); 360,000 tested, 0.56% active; AID 651725; in the data active = activity change below about -65%; inconclusive = about -30% to -65%; inactive = above about -30%; also: % is scaled to controls: 0 for no effect and ±100 for the full control effect
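Compounds are tested against tagged Six1 and Eya2 proteins bridged by glutathione donor and nickel acceptor beads; after a one-hour incubation at 37 °C without light, AlphaScreen emission is recorded.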
Starred values were filed as active, the others as inactive; u = inconclusive; x = no result given; & = joins results of further samples; [ ] = dose if it differs, or a comment. An unsorted share of the library. About 3.7% of those tested had a hit in this group.

Under each structure – TRPV1 potentiator	CtBP-E1A inh	Sfp PPTase inh	D2 agonist	D2 PAM	PINK1 modulator	Six1-Eya2 inh
> CCOC(=O)N1CCC(NC(=O)CC2C(=O)NCCN2Cc2ccccc2F)CC1 (centres undefined)
→ -5	2	2%	3.4	-1	0.7%	-1
> CN1CCN(c2ccc3c(c2)OC[C@@H](Cc2ccccc2)NS3(=O)=O)CC1
→ x	-11	x	x	x	-0.3%	7
> Cc1cc(=O)[nH]c(SCc2csc(-c3ccccc3)n2)n1
→ -12	3	11%	-0.8	-9	0.5%	4
> CC(C)c1ccccc1OCC(=O)NC1CCCc2ccccc21 (centres undefined)
→ -7	9	-24%	-3.6	-14	u	22
> CC(=O)c1cc(C)ccc1OC(=O)CN1C(=O)c2ccccc2C1=O
→ 8	x	2%	-3.6	-19	0.9%	19
> CCS(=O)(=O)N1CCC(C(=O)NC2CCCCC2)CC1
→ -27	-4	11%	-2.5	1	x	4
> O=C(Nc1cccnc1)c1cc(-c2ccc(Br)cc2)nc2ccccc12
→ -5	-3	-11%	5.9	-7	0.3%	-2
> CN(C)CCCN(C(=O)c1ccc(S(=O)(=O)N2CCCC2)cc1)c1nc2c(F)cc(F)cc2s1
→ 5	-7	x	-4.5	0	3.1%	3
> C=Cc1ccc(Cn2c(C)c(C(=O)NCc3ccccc3C(F)(F)F)sc2=O)cc1
→ x	-1	x	4.6	-2	0.5%	-11
> CCc1n[nH]c(=S)n1/N=C/c1ccccc1OCc1ccc(Cl)cc1
→ u	2	u	-6.1	-4	13%	4
> CCCCNC(=O)c1ccccc1NS(=O)(=O)c1ccc2c(c1)OCCO2
→ 13	8	4%	-0.8	3	-4.2%[38.3 µM]	7
> COc1cc(NC(=S)N2CCN(S(=O)(=O)c3ccc(F)cc3)CC2)cc(OC)c1
→ -2	0	-3%	-0.1	-1	5.6%	-1
> Cc1ccc(Sc2nc3ccc(C)cn3c(=O)c2/C=N/O)cc1
→ 1	6	23%	-0.5	-3	4.8%	4
> CS(=O)(=O)N1CC(C(=O)NC2CC2)Oc2ccc(Cl)cc21 (centres undefined)
→ 12	5	19%	-4.3	10	-0.5%	-1
> O=C(COC(=O)Cn1cnc2ccccc2c1=O)Nc1ccccc1Sc1ccc(Cl)cc1
→ -1	2	16%	-4.5	-22	6.0%	-9
> Cc1cc(=O)[nH]c(SCc2cn3ccccc3n2)n1
→ u	-16	-13%	-2.8	-2	-1.0%	20
> CCc1ccc(C2=NN(C(=O)OC)C(O)(C(F)(F)F)C2)cc1 (centres undefined)
→ -25	9	13%	-0.7	8	x	4
> COc1cc2c(C(=O)Nc3ccccc3F)cn(C)c(=O)c2cc1OC
→ -24	u	6%	1.5	2	-1.8%	-23
> Cc1ccc2c(c1)n([O-])c1c([n+]2=O)CCCC1
→ 6	4	6%	-2.7	-4	-0.7%	1
> COCCN(C(=O)CSc1nnc(-c2ccccc2F)n1C)c1c(N)n(Cc2ccccc2)c(=O)[nH]c1=O
→ -4	0	12%	1.6	-5	0.5%	7
> CCNCC(=O)Nc1c(C)cccc1C
→ 15	-14	x	-3.8	-6	-0.3%	2
> Cc1cc(Cl)c(S(=O)(=O)NCCC(=O)O)cc1OCC(N)=O
→ 3	-2	0%	-3.5	-6	0.2%	4
> Cc1ccc(CN2CC(C(=O)Nc3ccc(S(=O)(=O)Nc4cc(C)nc(C)n4)cc3)CC2=O)cc1 (centres undefined)
→ -2	-3	-7%	-1.8	14	0.5%	-5
> CS(=O)(=O)N1CCN(C(=O)c2ccc(Cl)s2)CC1
→ 0	3	19%	2.5	5	-0.5%	2
> CCSc1nsc(NC(=O)Nc2cccc(F)c2)n1
→ 26	-15	9%	1.5	-8	u	2
> CNC(=S)/N=C(\Nc1ccc(C)cc1)c1ccccc1
→ -11	-2	7.1µM*	-3.2	-3	-1.7%	-5
> Oc1ccccc1C=NN=Cc1ccccc1Cl
→ x	0	x	-2.6	-3	u	19
> Cc1ccc(NC(=O)c2ccccc2Cl)cc1-n1cnnn1
→ 4	1	12%	-0.2	-4	1.6%	4
> COc1cc(CCCN2C(=O)C(=O)NC[C@@H]2CC2CCCCC2)cc(OC)c1OC
→ -26	x	x	-2.8	-12	-0.5%	15
> O=C(Nc1ccc(F)cc1)Nc1ccc(N2CCOCC2)c2nonc12
→ -7	-17	-15%	-3.7	-4	5.3%	-9
> Cc1ccc(-c2nnc(NC3CCCCC3)c3ccccc23)cc1S(=O)(=O)N1CCN(C)CC1
→ -12	-9	-15%	-0.9	-10	1.5%[38.3 µM]	-10
> CCOC(=O)c1c(C)[nH]c(C(=O)COC(=O)c2ccc(O)cc2O)c1C
→ 18	-5	3%	-2.1	-8	-1.1%	-6
> CC(C)C(NC(=O)c1ccc(F)cc1)C(=O)N1CCC1 (centres undefined)
→ 5	25	x	-2.9	-2	-0.6%	23
> CCn1ncc([N+](=O)[O-])c1C(=O)Nc1c(C)cccc1C
→ 4	x	-2%	-2.9	-8	0.5%	-1
> O=C(CNS(=O)(=O)c1ccccc1)NCC(=O)OCc1ccc(C(=O)c2ccccc2)cc1
→ -9	8	-3%	1.3	-6	2.5%	2
> Cn1ncc2c(NNC(=O)c3ccccc3Cl)ncnc21
→ 6	-6	-15%	1.1	10	2.3%	-2
> Cc1cc(C)nc(NC2=NCC(=O)N2CCc2c[nH]c3ccccc23)n1
→ u	-2	-4%	-3.9	-9	-1.0%	3
> Cc1cc(NC(=O)CCC(=O)N(Cc2cccs2)C(C)(C)C(=O)NC2CCCCC2)no1
→ 15	25	17%	-4.7	5	0.8%	6
> Cc1cc(/C(O)=C2\C(=O)C(=O)N(CCN(C)C)C2c2ccncc2)ccc1OCc1ccccc1 (centres undefined)
→ 1	4	7%	-2.7	-21	0.5%	6
> COc1ccc(C(=S)N2CCOCC2)cc1OS(=O)(=O)c1ccccc1[N+](=O)[O-]
→ 4	-19	-29%	5.5	2	0.9%	-25
> Cc1cc([N+](=O)[O-])c(-c2ccc(/C=N/n3cnnc3)o2)cc1Cl
→ 1	-25	-13%	0.4	-1	2.3%[38.3 µM]	-28
> Cc1ccc(-c2cc(C(=O)Nc3ccc(S(=O)(=O)Nc4nc(C)cc(C)n4)cc3)c3ccccc3n2)cc1
→ 1	-1	0%	2.2	-12	0.6%	-1
> C[C@H]1CCC[C@]2(O[C@@H](CCO)C[C@H](O)[C@H]2O)O1
→ -2	8	1%	-3.5	-2	-0.1%	6
> COCCn1c(N)c(N(Cc2ccccc2)C(=O)Cc2c(Cl)cccc2Cl)c(=O)[nH]c1=O
→ 1	5	11%	-2.9	-3	-0.7%	4
> COc1cc(C(=O)NCC(c2cccnc2)N2CCN(c3ccc(F)cc3)CC2)cc(OC)c1OC (centres undefined)
→ -19	1	8%	1.7	-13	-1.5%&-0.7%	1

Limited to TRPV1 potentiator and CtBP-E1A inh, for 4 of the compounds above:
Compound | TRPV1 potentiator | CtBP-E1A inh
Cc1cc(NC(=O)CCC(=O)N(Cc2cccs2)C(C)(C)C(=O)NC2CCCCC2)no1 | 15 | 25
CCn1ncc([N+](=O)[O-])c1C(=O)Nc1c(C)cccc1C | 4 | x
CC(C)C(NC(=O)c1ccc(F)cc1)C(=O)N1CCC1 (centres undefined) | 5 | 25
Cc1ccc(-c2nnc(NC3CCCCC3)c3ccccc23)cc1S(=O)(=O)N1CCN(C)CC1 | -12 | -9

Remaining list, next part.
Under each structure – TRPV1 potentiator	CtBP-E1A inh	Sfp PPTase inh	D2 agonist	D2 PAM	PINK1 modulator	Six1-Eya2 inh
> COc1ccc(N2CCN(C(=O)c3cc([N+](=O)[O-])ccc3N3CCN(CCO)CC3)CC2)cc1
→ 4	12	10%	-4.9	-14	-1.8%	-4
> CCc1cccc(CC)c1NC(=O)CNCc1cccs1
→ 11	-4	-4%	-2.4	-2	2.6%	0
> NC1=NCC(O)=C1c1nc2ccccc2[nH]1
→ 19	-2	5%	-3.8	-3	0.3%	-12
> Cc1ccc(NC(=O)c2cc(=O)c3ccccc3o2)cc1
→ 11	2	-5%	-3.9	-18	7.4%	4
> O=C(NCCN1CCN(c2ccccc2)CC1)Nc1cccc(Cl)c1
→ 10	-5	8%	u	-8	0.3%	-8
> O=C(CN(c1ccccn1)S(=O)(=O)c1ccccc1)N/N=C/c1cccc([N+](=O)[O-])c1
→ 7	5	6%	-11	5	-0.8%	-1
> O=[N+]([O-])c1ccc(S(=O)(=O)NN=CCCc2ccccc2)cc1
→ x	-4	x	2.0	-22	-1.4%	2
> O=C(Nc1ccc(-c2cn3ccccc3n2)cc1)c1cccs1
→ 9	-4	u	5.1	5	-2.1%	-20
> COc1cccc(-c2nc3ccc(O)cc3c(=O)o2)c1
→ 24	u	11%	-0.2	-31	7.0%	u
> CC1=NN(Cc2cc(C(C)(C)C)c(O)c(C(C)(C)C)c2)C(=O)C1
→ -6	x	-10%	-5.3	-5	2.2%	0
> CC(=O)Nc1ccc(S(=O)(=O)NCCSCc2cccc(Cl)c2)cc1
→ 4	4	6%	0.0	-2	-0.3%	-12
> Cc1ccc(C(=O)NCc2ccc3c(c2)OCO3)cc1N1CCCC1=O
→ x	5	10%	-4.2	-6	-0.4%	0
> Cc1cccc(OCC(=O)Nc2nc3ccc([N+](=O)[O-])cc3s2)c1C
→ 22	12	11%	-3.2	-8	9.8%	23
> CC(C(=O)Nc1ccccc1)N(C)CCOc1ccccc1 (centres undefined)
→ 14	9	10%	-0.5	-14	1.6%	-1
> O=C(NC1CCN(C(=S)NCc2ccco2)CC1)C12CC3CC(CC(C3)C1)C2
→ 1	8	-16%	0.3	-9	4.8%[38.3 µM]	-4
> O=C(O)C1=C(C(=O)O)C2C=CC1C2
→ x	4	x	-3.2	-4	-0.8%	-5
> O=C(NCCCN1CCCC1=O)NC1CCCCC1
→ -5	6	-4%	-0.4	3	-0.6%	2
> O=C(Nc1cccnc1)c1cc(-c2ccco2)on1
→ -25	-6	u	2.4	-2	-2.2%[38.3 µM]	-10
> Cc1nc2nc(CSc3ccc(Cl)cc3)cc(=O)n2[nH]1
→ 26	-2	19%	0.1	-2	2.5%	3

Assay outcomes: PubChem, National Center for Advancing Translational Sciences (NCATS)
